From PubChem BioAssay
VDR inh: inhibitors of human vitamin D receptor | AID 504847 | P11473 | VDR-SRC2-3 peptide fluorescence polarization, 2 h | Potency, µM, for inactives: max response, negative = inhibition, most hits filed as inhibitors | 400,000 tested, 0.93% active; active = well fitted inhibition curve with a large enough effect; inconclusive = small, poorly fitted or top-dose-only effect, or another doubt; inactive = no such curve, though single readings can be large or run the other way; note: series mostly up to about 120 µM
Target sequence (P11473 whole entry, looked up): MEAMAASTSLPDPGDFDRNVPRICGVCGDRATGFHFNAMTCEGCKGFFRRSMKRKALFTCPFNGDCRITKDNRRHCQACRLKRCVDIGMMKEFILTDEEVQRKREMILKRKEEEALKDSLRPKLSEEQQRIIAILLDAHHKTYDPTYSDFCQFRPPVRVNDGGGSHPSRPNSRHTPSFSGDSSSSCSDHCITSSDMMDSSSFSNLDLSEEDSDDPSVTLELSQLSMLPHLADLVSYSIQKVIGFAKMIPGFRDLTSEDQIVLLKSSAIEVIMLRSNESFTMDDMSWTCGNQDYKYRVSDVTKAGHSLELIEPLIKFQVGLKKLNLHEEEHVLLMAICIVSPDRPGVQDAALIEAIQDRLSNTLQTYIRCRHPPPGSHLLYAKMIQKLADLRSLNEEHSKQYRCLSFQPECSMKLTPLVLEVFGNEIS
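Fluorescence polarization assay measuring small-molecule disruption of VDR binding to the coregulator peptide SRC2-3. Compounds were pin-transferred (23 nl) into the reagent mix and incubated 2 h at room temperature before reading.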
Numbers without * were called inactive; ? = inconclusive; & = joins results of further samples; [ ] = dose if it differs, or a comment. % is set by controls: 0 for no effect and ±100 for the full control effect; potency is the fitted concentration of half-maximal effect.

molecule | VDR inh
CCOC(=O)c1c(C)[nH]c(C(=O)COC(=O)/C=C/c2cccc(OC)c2OC)c1C | 12%
CCN(CC)C(NC(=O)Cc1ccccc1)C(Cl)(Cl)Cl (stereo unspecified) | -5%
CCn1c(O)c(/C=C/C=C/C=Nc2ccccc2)sc1=S | 22%
CCOC(=O)N1CCC(NC(=O)Cn2c3c(c(-c4ccccc4Cl)cc2=O)CCC3)CC1 | 3%
Cc1c(C(=O)OCC(=O)c2ccc3c(c2)OCCO3)oc2ccccc12 | 10%
O=C(Nc1ccc(F)cc1)C1CCC(CNc2c(N3CCCCC3)c(=O)c2=O)CC1 (stereo unspecified) | 2%
O=C(CN1C(=O)c2cccnc2Oc2ccc(Cl)cc21)NCCC1=CCCCC1 | 2%
Cc1csc(NC(=O)CSc2nnnn2C)n1 | 11%
CCOC(=O)c1c(C)[nH]c(C(=O)COC(=O)c2cnc(C)cn2)c1C | -7%
Cc1cc(N2CCN(c3ccccc3Cl)CC2)n2cc(-c3ccccc3)nc2n1 | -9%
CCCCN(C(=O)NC(=O)C1=C(N2CCOCC2)/C(=C/c2ccccc2)CC1)S(C)(=O)=O | -9%
CC1(C(=O)NCCc2c[nH]c3ccccc23)C=CCN1C(=O)c1ccccc1 (stereo unspecified) | -3%
Cn1c(SCC(=O)OCc2ccccc2)nnc1-c1ccco1 | -19%
O=C1N=C(N2CCN(c3ccccc3)CC2)S/C1=C/c1ccco1 | -15%
COc1cc(OC)cc(C(=O)Nc2cc(-c3nc4cccnc4s3)ccc2C)c1 | 0%
CC(C)(C)OC(=O)N1CCOCCOCCN(C(=O)OC(C)(C)C)CCOCC1 | -3%
CCn1c(COc2ccccc2)nnc1SCC(=O)Nc1cc(OC)ccc1OC | -14%
O=C(Nc1ccccc1Br)c1cc[n+]([O-])cc1 | -18%
O=C1C2CCCN2C(=S)N1Cc1ccccc1 (stereo unspecified) | 4%
COC(=O)c1ccc(C2/C(=C(/O)c3ccc4c(c3)CC(C)O4)C(=O)C(=O)N2Cc2ccncc2)cc1 (stereo unspecified) | -2%
CN(C)S(=O)(=O)c1cc(NC(=O)CN2CCc3ccccc32)ccc1Cl | 33%[activator]
Cc1cccc(C)c1NC(=O)C(=O)NCCCN1CCOCC1 | -11%
O=C(NCc1ccccn1)c1ccc(Cl)cc1Cl | 4%
CSc1ccc(C2N=C(c3ccccc3)NO2)cc1 (stereo unspecified) | -15%
CN=C(C[N+](=O)[O-])NCCSCc1ccc(CN(C)C)o1 | 14%
Cc1cc(NC(=O)c2cnn3cccnc23)n(-c2ccccc2)n1 | 1%
Cc1cc(Br)ccc1NC(=S)N1CCOCC1 | 8%
COc1ccc(/C=N/n2c(-c3n[nH]c4c3CCC4)n[nH]c2=S)c(OC)c1OC | -27%
COC(=O)[C@@]1(Cc2ccccc2)[C@H]2C(=O)N(C)C(=O)[C@H]2[C@H]2CN=C(SCc3ccc(Cl)cc3)N21 | -5%
CCN1/C(=C/C(=S)Nc2ccccc2)Sc2ccccc21 | 71µM*
NC(N)=Nc1nc2cc([N+](=O)[O-])ccc2o1 | -16%
COc1cc(/C=N/NC(=O)c2nonc2C)ccc1O | 1%
O=S(=O)(c1ccccc1)N(Cc1ccccn1)Cc1ccccn1 | -4%
CCOC(=O)CSc1nc2c(sc3ccccc32)c(=O)n1CCc1ccccc1 | 9%
CC1OC23CCCCC2C(C#N)(C(=N)O3)C1(C#N)C#N (stereo unspecified) | 0%
COc1ccc(N2CCN(C(=O)Cn3cnc4c(cnn4-c4ccccc4)c3=O)CC2)cc1 | -2%
CCCCOc1ccc(NC(=O)CN2CCN(C(=O)OCC)CC2)cc1 | 10%
COc1cccc(NC(=O)COC(=O)/C=C/c2ccc(Cl)cc2Cl)c1 | 12%
CCn1nc(C)cc1C(=O)Sc1ccc(C)cc1 | -14%
Cc1cc(C)cc(-c2nnc(SCC(=O)NCc3cccs3)o2)c1 | -2%
Cc1onc(-c2c(Cl)cccc2Cl)c1C(=O)N(C)Cc1ccccc1 | 14%
O=C1c2ccccc2C(=O)N1CCCn1ccnc1 | 1%
FC(F)Oc1ccc(NC(=S)Nc2ccc3cn[nH]c3c2)cc1 | -4%
COc1ccc(N2C(=O)CC(Cc3ccccc3)C2=O)cc1 (stereo unspecified) | -9%
Cc1cccc(NC(=O)c2ccc(S(=O)(=O)N3CCCCCC3)cc2)n1 | 9%
O=C(NCCn1cc(SCc2ccccc2)c2ccccc21)c1cccs1 | 3%
Cc1ccc(-c2cc(Cc3cccs3)c(=O)[nH]n2)cc1 | 15%
Cc1ccc(-n2ncc3c(N4CCN(Cc5ccccc5)CC4)ncnc32)cc1 | 12%
CC(=O)Nc1ccc(S(=O)(=O)Oc2cccc(N3C(=O)C4CCCCC4C3=O)c2)cc1 (stereo unspecified) | 0%
CC(C)COc1cccc(-c2cc(C(=O)N/N=C/c3ccncc3)c3ccccc3n2)c1 | -7%
Cc1ccc(C(=O)Nc2nc(=O)[nH]s2)cc1 | 20%&0%
NC(=O)CCS(=O)(=O)c1ccccc1 | -1%
Cc1ccc2c(CC(=O)NNC(=O)c3ccccc3O)coc2c1 | -2%
Cn1cccc1C(=O)N1CCC2(CC1)CCN(C(c1ccccc1)c1ccccc1)CC2 | -23%
CC(=O)C1=C(O)C(=O)N(Cc2ccco2)C1c1ccc2c(c1)OCO2 (stereo unspecified) | 1%
O=C(CN1C(=O)CC(c2ccccc2)S(=O)(=O)c2ccccc21)NC1CCCC1 (stereo unspecified) | 0%
O=C(CCCCCn1c(=O)[nH]c2ccccc2c1=O)NCCc1ccccc1 | 3%
O=C(Cn1cc([N+](=O)[O-])cn1)NCCc1nc2ccccc2[nH]1 | 1%
O=C(NCc1ccccc1Cl)c1ccc2c(c1)NC(=O)C(CS(=O)(=O)Cc1ccc(Cl)cc1)N2 (stereo unspecified) | 2%
CCOC(=O)C1CCN(Cc2cnc(Oc3ccc(C(C)(C)C)cc3)s2)CC1 | -4%

Next section
SMILES | VDR inh
Cc1ccc2c(c1)c1nc3ccccc3nc1n2C | -9%
CN(CC(=O)NCc1ccc(Cl)cc1)S(=O)(=O)c1cccs1 | -6%
Cc1nn2c(nc1=O)NNC2(C)C(C)(C)C (stereo unspecified) | 11%
CCn1c(COc2ccccc2)nnc1SCC(=O)NC1CC1 | 12%
Cc1ccc(N2C(=O)CC(Cn3nc(C)cc3C)C2=O)cc1 (stereo unspecified) | 9%
CC(=O)Nc1cc(NC(C)=O)cc(C(=O)OCC(=O)N(c2ccccc2)C2CCS(=O)(=O)C2)c1 (stereo unspecified) | -4%
c1ccc(-c2[nH]ncc2-c2nc3ccccc3[nH]2)cc1 | 4%
COc1ccc(NC(=O)c2sc(NC(=O)C3CC3)nc2C)cc1 | -22%
NC(=O)CSc1nc(-c2ccccc2Cl)ns1 | -18%
O=C(O)c1ccc(-c2ccccc2C(F)(F)F)o1 | 15%
O=C(NCCCc1ccncc1)C1CCC(=O)N(Cc2cccc(C(F)(F)F)c2)C1 (stereo unspecified) | 3%
Cc1cccc(N2CCN(C(=O)c3ccc4c(Cl)c5c(nc4c3)CCCC5)CC2C)c1 (stereo unspecified) | 5%
Cc1nc2ccccc2c(=O)n1N(c1ccccc1)c1ccccc1 | 2%
CSc1ccccc1NC(=O)c1noc2c1CCC2 | -16%
O=S(=O)(NCc1nnc2c(C(F)(F)F)cc(Cl)cn12)c1ccccc1 | -12%
O=C(CSc1nc2ccccc2c(=O)[nH]1)N1CCCCCC1 | -8%
Cc1nc(Nc2ccccc2)c2oc3ccc(Cl)cc3c2n1 | -15%
COc1cc(OC)c(OC)cc1CN1CCN(Cc2ccc(SC)cc2)CC1 | -3%
COc1ccc2c(c1)N(S(=O)(=O)c1ccccc1)CCC2=O | -18%
CCNC(=O)NC(=O)COc1ccccc1C#N | 0%

Taken from above.
Cc1c(C(=O)OCC(=O)c2ccc3c(c2)OCCO3)oc2ccccc12 – VDR inh: 10%
O=C1c2ccccc2C(=O)N1CCCn1ccnc1 – VDR inh: 1%
COc1cc(OC)c(OC)cc1CN1CCN(Cc2ccc(SC)cc2)CC1 – VDR inh: -3%
O=C(Cn1cc([N+](=O)[O-])cn1)NCCc1nc2ccccc2[nH]1 – VDR inh: 1%
CCOC(=O)C1CCN(Cc2cnc(Oc3ccc(C(C)(C)C)cc3)s2)CC1 – VDR inh: -4%
CCN(CC)C(NC(=O)Cc1ccccc1)C(Cl)(Cl)Cl (stereo unspecified) – VDR inh: -5%

Going on with the list.
SMILES | VDR inh
Cc1ccc(C)c(S(=O)(=O)N2CCCOC2CNC(=O)C(=O)NC2CC2)c1 (stereo unspecified) | 5%
COc1ccc2c(c1)[C@H]1[C@H](CO2)[C@H](c2ccccc2)[C@]2(C)C(=O)Nc3ccc(F)cc3C(=O)N12 | -4%
CCc1ccccc1NC(=O)CSc1nnc([C@@H]2CCCN2C(=O)OC(C)(C)C)o1 | 2%
COc1ccc(CNC(=O)COC(=O)Cc2ccc(Cl)cc2Cl)cc1 | -11%
COc1ccc(OC)c(NC(=O)Cn2cnc3c(oc4ccccc43)c2=O)c1 | 3%
CC(C)(C)c1ccc(C(=O)NNc2cc(N3CCOCC3)nc(N3CCOCC3)n2)cc1 | -7%
Cc1csc(=N)n1-c1ccc(Cl)cc1 | 1%
CCCCNC(=S)N1CCN(C(c2ccccc2)c2ccccc2)CC1 | 5%
CC(=O)N1c2ccccc2NC2=C(C(=O)CC(C)(C)C2)C1c1cccn1C (stereo unspecified) | 11%
CN(C)CCCNC(=O)c1cc(Br)ccc1Cl | 13%
CCC1Oc2ccccc2N(CC(=O)N2CCOCC2)C1=O (stereo unspecified) | 10%
Cc1cc(NC(=O)c2cc(-c3cccs3)on2)no1 | 7%
Oc1ccccc1N1CCN(CC(O)COCc2ccccc2Cl)CC1 (stereo unspecified) | -8%
COc1ccc(C(=O)NCC(=O)OCC(=O)Nc2c(C)n(C)n(-c3ccccc3)c2=O)cc1 | 1%
COc1ccccc1N(C)S(=O)(=O)c1ccc(C(=O)OCC(N)=O)cc1 | 15%
Cc1ccc(-n2cc(-c3ccccc3)c3c(N4CCCCC4)ncnc32)cc1 | 6%
O=C(c1cn(-c2ccccc2)nc1-c1ccccc1)n1nnc2ccccc21 | -11%
CCOC(=O)C1CCN(C(=O)C(=O)N2CCC(C(=O)OCC)CC2)CC1 | -5%
COC(=O)c1cc(NC(=O)CSc2nc(C)cc(=O)[nH]2)cc(C(=O)OC)c1 | 7%
O=C(CSc1nnc(CNC(=O)c2ccccc2)o1)Nc1nccs1 | 8%
O=S(=O)(Nn1cnnc1)c1ccc(F)cc1 | 30%[activator]
COc1ccc(-n2nnnc2C2CCN(S(=O)(=O)c3cccc(C(F)(F)F)c3)CC2)cc1 | -10%
Cc1cc(C)c(NC(=O)CN2C(=O)CCSc3ccc(S(=O)(=O)N4CCCC4)cc32)c(C)c1 | 9%
Cc1noc(C)c1COc1ccc(C(=O)NCC(c2c(F)cccc2Cl)N(C)C)cc1 (stereo unspecified) | -1%
CCC1CCCCN1CCCNC(=O)CCC(=O)N1CC(C)Oc2ccccc21 (stereo unspecified) | -11%
C[C@H]1CN([C@@H](C)CO)C(=O)c2cccc(NC(=O)c3ccc(-c4nccs4)cc3)c2O[C@@H]1CN(C)C(=O)NC1CCCCC1 | -13%
CC(=O)NCCC(=O)Nc1nc(-c2ccccc2Cl)cs1 | 3%
CCOC(=O)c1ccccc1NC(=O)c1cccc2c1C(=O)N(C1CCN(C(=O)OCC)CC1)C2 | -28%
NC(=NCCc1ccccc1)NS(=O)(=O)c1ccc(F)cc1 | -19%
COc1ccc(NC(C)=O)cc1C#N | -17%
O=C(Nc1ccccc1Br)C1CCC(=O)N1Cc1ccccc1Cl (stereo unspecified) | 1%
CSc1ncccc1C(=O)NCC(=O)Nc1ccc(F)c(F)c1 | -8%
C=CCNC(=O)COC(=O)c1ccccc1C(=O)N(C)C1CCCCC1 | -11%
O=C(Cn1cc(S(=O)(=O)Cc2ccccc2Cl)c2ccccc21)NCCc1ccccc1 | 3%
COc1ccc(NC2CCCN(C(=O)c3csc(C)n3)C2)cc1 (stereo unspecified) | -6%
CC(C)[C@H](/C=C/C[Si](C)(C)C)[C@H](C)C(O)/C=C/CCCOC(=O)C(C)(C)C (stereo partly specified) | 1%
O=C1c2ccccc2C(=Nc2ccccc2)C1c1cccc(Br)c1 (stereo unspecified) | 2%
CN(NS(=O)(=O)c1ccccc1)c1nc2ccccc2nc1C(F)(F)F | 10%
O=C(Nc1nnc(S(=O)(=O)N2CCCc3ccccc32)s1)c1ccccc1 | -2%
Cc1cc(N2CCOCC2)nc(SCC(=O)c2ccc(Cl)cc2)n1 | 0%

Fetched by compound from the list above (six):
SMILES | VDR inh
COc1ccc(NC(C)=O)cc1C#N | -17%
CC1OC23CCCCC2C(C#N)(C(=N)O3)C1(C#N)C#N (stereo unspecified) | 0%
CN=C(C[N+](=O)[O-])NCCSCc1ccc(CN(C)C)o1 | 14%
COc1ccc(NC(=O)c2sc(NC(=O)C3CC3)nc2C)cc1 | -22%
CSc1ccc(C2N=C(c3ccccc3)NO2)cc1 (stereo unspecified) | -15%
O=C(NCCn1cc(SCc2ccccc2)c2ccccc21)c1cccs1 | 3%

Continuation:
SMILES | VDR inh
Cc1nn(-c2ccccc2)nc1C(=O)Nc1nnc(C(F)(F)F)s1 | -2%
CCc1nn2c(=O)c(S(=O)(=O)Nc3ccc(C)c(C)c3)c(C)nc2s1 | -9%
O=C(CN1CCSc2ccccc21)N1CCN(c2cccc(Cl)c2)CC1 | 5%
CC(=O)c1cccc(NC(=O)c2oc(C)nc2C)c1 | -8%
Cc1cc(C)n(CCC(=O)N=Nc2c(O)[nH]c3ccccc23)n1 | 26%
O=C(NNc1ccc(-c2csnn2)cc1)c1cc(Cl)cc(Cl)c1 | ?
CN(C)C1(CNC(=O)C2CCN(S(=O)(=O)c3c(Cl)cccc3Cl)CC2)CCCCC1 | ?
O=C1/C(=C/c2ccncc2)Oc2cc(OS(=O)(=O)c3ccccc3)ccc21 | ?
Cc1ccc(NC(=O)Cn2c(=O)c(CNc3ccccc3)cc3cc4c(cc32)OCCO4)cc1 | 2%
CC(C)C[C@@H](COc1ccccc1)N1CCN(Cc2ccccc2)CCC1=O | -7%
NC(=O)C1CCN(C(=O)CCNS(=O)(=O)c2cc(Br)cnc2N)CC1 | 8%

The list is partial (hit frequency here may not be typical).
